# BasE inh – BasE siderophore enzyme inhibitors, primary screen, biochemical, Acinetobacter baumannii ATCC 17978, fluorescence polarization; AID 485350, 2010; purified BasE, fluorescence polarization binding displacement; actives 0.1% (n = 84,000); inhibition, % (test concentration not listed);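 active means both replicates above 25% with normal brightness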;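 further: 0% = negative plate control signal and 100% = positive plate control signal; stock transfer was 100 nL into about 30 µL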
# LANA-nucl inh – inhibitors of KSHV LANA-nucleosome binding, primary screen, biochemical, fluorescence polarization, FITC-LANA1-23, chicken nucleosomes | FITC-LANA1-23 / chicken nucleosome fluorescence polarization; active compounds read low | z-score (concentration not given with the values) | actives 0.3% (n = 51,000) | AID 720717, 2013;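 active means both repeat wells score below -2 in polarization z-score versus plate sample wells, excluding overly bright wells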;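 further: 100 nL library stock added to about 30 µL; numbers are from one replicate; some results filed as inactive read as strong as hits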
#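 test system = FITC-LANA peptide and chicken nucleosomes | amount = 240 nM purified chicken nucleosomes (480 nM peptide binding sites), final | reagent = 50 nM FITC-LANA1-23 probe | medium = TEN-BT buffer, pH 7.5 | doses = single compound addition by pin transfer, 100 nL per well | timing = 10–45 min, room temperature | detection = fluorescence polarization | repeats = duplicate plates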
# * = called active by the depositor; . = not tested or not shown; & = joins results of further samples.
# Screens in order – LANA-nucl inh, BasE inh
- CS(=O)c1sc(C(=O)OCc2ccccc2)c2c1C(=O)CC(C)(C)C2 (stereo not given)
    ., -1.2
- O=c1nccc(C(F)(F)C(F)(F)F)[nH]1
    ., 0.9
- Cc1cc(OC(=O)c2ccccc2)n[nH]1
    ., -4.2
- CN(C(=O)c1cccc(C#N)c1)c1nnc(C2CCOC2)s1 (stereo not given)
    2.43, -0.9
- O=C(CN1CCN(c2cccc(Cl)c2)CC1)c1ccc(Cl)cc1
    0.745, 0.5
- CCC(c1nnnn1Cc1ccccc1)N1CCN(c2cccc(C)c2C)CC1 (stereo not given)
    -1.35, -1.5
- Nc1nccc(-c2ccc(Sc3ccccc3)cc2)n1
    -1.7, .
- CC(C(=O)NCc1ccc(F)cc1)n1sc2ccccc2c1=O (stereo not given)
    -1.65, 2.8
- O=C(C1CCC1)N1CCN(c2cc(C(F)(F)F)nc3ccccc23)CC1
    ., 3.2
- O=C(O)CO/N=C/c1ccccc1
    ., 3.9
- CSCCC(=O)Nc1ccc(Oc2cccc(C)c2)cc1
    ., -2.9
- O=C(Nc1ccc(O)cc1)C1Cc2ccccc2CN1S(=O)(=O)c1cccs1 (stereo not given)
    -1.07, 1.9
- Cc1ccc(C(C)(C)C)c(OCCC#N)c1
    ., 1.4
- O=C(O)CN(Cc1ccccc1)S(=O)(=O)c1ccccc1
    ., 4.3
- O=S1(=O)C=C(N2CCOCC2)CC1
    0.292, -0.5
- Cc1onc(-c2ccccc2)c1C(=O)O
    0.145, -0.9
- COc1ccc(-c2nn(CN3CCOCC3)c(=S)n2C2CCCCC2)cc1
    ., 1.6
- OC1CCCN(C2CCN(CCc3ccccc3)CC2)C1 (stereo not given)
    -0.244, -1.3
- O=C(O)c1ccc2ccccc2c1Br
    ., -3.2
- CN(C)CCOC(=O)NC1CC(=O)N(c2ccc(F)cc2)C1 (stereo not given)
    -1.62, 0.3
- Cc1ccc(S(=O)(=O)N2C(=O)CCC2C(=O)N(Cc2nc(-c3ccccc3)no2)C(C)C)cc1 (stereo not given)
    0.332, 1.3
- COc1ccc(-c2c(C#N)c(N)nc(OC)c2C#N)cc1
    -0.436, 5.0
- COc1ccc(Nc2cc(C)c3ccccc3n2)cc1
    0.372, -0.6
- c1cnc(SCc2csc(-c3ccc4c(c3)OCO4)n2)nc1
    2.61, -3.2
- C1CCC(Nc2nc(N3CCOCC3)nc(N3CCOCC3)n2)CC1
    0.736, -1.8
- CCc1cc2c(N3CCN(CC)CC3)nc(C)nc2s1
    -0.462, -0.4
- COc1ccc(C(=O)N/N=C2/SCC(=O)N2C)c(OC)c1
    0.409, 0.5
- CCOC(=O)c1c(CN2CCN(C)CC2)n(-c2ccccc2)c2ccc(O)cc12
    -1.38, 2.6
- CC(=O)Nc1nnc(-c2c(-c3c(Cl)cccc3Cl)noc2C)o1
    ., -4.1
- COc1ccc(CCNC2CC(=O)N(CCc3ccc(OC)c(OC)c3)C2=O)cc1 (stereo not given)
    0.655, 2.1

# Looked up by compound from the list above (two):
# Screens in order – LANA-nucl inh, BasE inh
- CC(=O)Nc1nnc(-c2c(-c3c(Cl)cccc3Cl)noc2C)o1
    ., -4.1
- CCC(c1nnnn1Cc1ccccc1)N1CCN(c2cccc(C)c2C)CC1 (stereo not given)
    -1.35, -1.5

# (listing goes on)
# Screens in order – LANA-nucl inh, BasE inh
- Cc1cc2ncn(CN3CCN(c4ccc(C(F)(F)F)cn4)CC3)c2cc1C
    ., -1.9
- COc1ccccc1Cn1c(=S)[nH]c2cc(C(=O)NCCN(C)C)ccc2c1=O
    0.229, -2.6
- COc1cc2c(cc1OC)C(C(=O)Nc1ccccn1)C(c1cccnc1)N(C)C2=O (stereo not given)
    0.21, -2.1
- COc1cccc(N=Cc2ccccc2O)c1
    -0.481, 0.5
- CCOC(=O)N1CCC(NCc2c(C(=O)O)c(C)n(Cc3cccc(C)c3)c2C)CC1
    0.065, -1.3
- Nc1ccc(SC(C(F)(F)F)(C(F)(F)F)C(F)(F)F)cc1
    ., -0.2
- COc1ccc(N2CCN(S(=O)(=O)c3c(C)noc3/C=C/N3CCOCC3)CC2)cc1
    -0.218, 0.7
- CCOC(=O)/C(C#N)=C1/C=CC(Cl)=NN1
    -0.643, 1.5
- Cc1nc2ccccc2n1CC(=O)OCC(=O)C(C)(C)C
    ., 1.1
- NN/C(=N\S(=O)(=O)c1ccccc1)NNc1ccccc1
    0.133, -1.2
- CCN(CC)CCN=Cc1c(O)n(-c2ccccc2C)c(=O)[nH]c1=O
    ., 0.3
- Cc1cc(F)ccc1S(=O)(=O)NCC1CC2CCC1C2 (stereo not given)
    ., 1.7
- CC(=O)Oc1ccc(OC(C)=O)c(C2=C3C(=O)N(CCc4c[nH]c5ccccc45)CC(=O)N3CCC2)c1
    0.626, 0.7
- COC(=O)c1ccc(OCCOc2ccc(C(=O)OC)cc2)cc1
    2.11, -5.0
- O=C(CSc1nnc(-c2c[nH]c3ccccc23)n1CC1CCCO1)c1ccc(Cl)s1 (stereo not given)
    ., -5.5
- CC(=O)NC(O)C(=O)c1ccccc1 (stereo not given)
    -0.783, 2.1
- CC(C)(C#N)Nc1ccccc1
    1.03, -2.6
- CC(C)NC(=O)C1CC(=O)N(Cc2ccccc2)C1 (stereo not given)
    ., 1.9
- COc1ccc(S(=O)(=O)c2cn(C)c3ccccc3c2=O)cc1
    0.548, -1.9
- CC1=C(C(=O)N2CCCCC2)C(c2ccc(N(C)C)cc2)C2=C(CCCC2=O)N1 (stereo not given)
    0.466, -0.2
- O=S(=O)(N/N=C/c1ccsc1)c1ccc(Cl)s1
    -0.0295, 2.4
- Oc1c(C(c2ccccc2Cl)N2CCCCC2)ccc2cccnc12 (stereo not given)
    ., 1.3
- CNC(=S)N1CCc2ccccc2C1
    -0.0985, -1.1
- CC(C)(C)NC(=O)N1CCN(c2cc(C(F)(F)F)ccn2)CC1
    ., 0.8
- O=C1CN(C(=O)c2ccc3c(c2)OCO3)c2ccccc2N1
    ., -0.4
- CCOC(=O)C1CCCN(S(=O)(=O)c2ccc(-c3ccc(=O)[nH]n3)s2)C1 (stereo not given)
    ., 2.1
- C/C(Cc1nc2ccccc2[nH]1)=N/NC(=O)c1ccccc1
    -0.65, -1.2
- CCOC(=O)c1ccc2c(c1)C(=O)N(C1CCCCC1)C2=O
    ., -1.3
- Cc1nn(C)cc1CN1CCN(C(=S)NCCc2ccccc2)CC1
    0.168, -2.1
- COc1ccc2c(c1)c1c(c(=O)n(Cc3ccccc3)c(=O)n1C)n2C
    -0.104, -1.9
- C=CCn1c(SCC(=O)O)nnc1-c1ccc2c(c1)OCO2
    ., 1.6
- COc1ccccc1-c1nn2c(C)nnc2s1
    1.23, 0.3
- N#CC(C(N)=O)=C1CCCCC1
    ., -0.8
- Cc1cc(C(=O)CSc2nncn2C)c(C)n1CC1COc2ccccc2O1 (stereo not given)
    ., 0.3
- COc1nc(C)[nH]c(=O)c1N
    ., -0.1
- COc1ccc(NC(=O)Nc2ccc(OC)c(OC3CCCC3)c2)cc1OC1CCCC1
    ., 0.7
- O=C1CN2Cc3c(ccc(Cl)c3Cl)N=C2N1
    -0.538&-0.007&0.275, .
- c1ccc(CSc2nnc3ccc(-c4ccc5c(c4)OCO5)nn23)nc1
    0.843, -0.6
- CN1CCN(CC(O)COC(C(F)(F)F)C(F)(F)F)CC1 (stereo not given)
    ., 0.5
- C=C(C)C(=O)Nc1cc(NC(=O)C(=C)C)cc(C(=O)O)c1
    -0.3, 1.2
- Cc1nn(CC(=O)O)c2c1C1C(C2)C1(C)C (stereo not given)
    -0.468, 3.3
- CN(C)c1ccc(C(=O)OCc2cc(=O)oc3cc(O)ccc23)cc1
    ., 1.1
- Cc1ccc(C(=O)Nc2c3c(nn2-c2ccccc2)CSC3)cc1
    ., 3.5
- CC(=O)OC(C)(C)C(=O)/C=C/c1ccccc1
    -0.078, -0.6
- Cc1cc(C)c2c(-n3cccc3)nn(Cc3ccc(C(=O)N4CCCC4)cc3)c2n1
    1.11, 0.6
- CCOc1cc(CNC2CCN(Cc3ccccc3)C2)ccc1OCC(=O)N(C)C (stereo not given)
    ., 0.5
- Clc1ccc2nc(N3CCc4ccccc43)c3nncn3c2c1
    -0.359, 3.8
- COC(=O)CN1C(=O)c2ccc(C(=O)OC)cc2C1=O
    ., 1.1
- N#Cc1c(-c2ccc(Cl)cc2)c2c([nH]c1=O)-c1ccccc1SC2
    3.08, -8.3
- O=C(C1CCN(S(=O)(=O)c2cccc3nsnc23)CC1)N1CCN(c2ccccc2Cl)CC1
    -0.413, 2.9
- O=C(NCCN1CCOCC1)c1ccc2c(c1)CCN2S(=O)(=O)c1ccc(Br)cc1
    0.138, -6.3
- Cn1nnc2c(N3CCCc4ccccc43)ncnc21
    0.356, 0.8
- O=S1(=O)C=C(Nc2ccccc2)CC1
    0.126, 1.3
- CC1CN(C(=O)CSc2ncnc3ccccc23)CC(C)O1 (stereo not given)
    ., 3.9
- C/C=C/C(=O)OCc1cc(=O)oc2cc(O)ccc12
    ., 0.8
- CN(C)c1ccc(C=Nc2nonc2-c2ccccc2)cc1
    0.409, -0.6
- Clc1cccc(-n2ncc3c(SCCN4CCCCC4)ncnc32)c1
    0.607, -2.1
- Cc1nn(Cc2ccccc2Cl)c2sc(C(=O)Nc3nccs3)cc12
    ., 0.7
- C/C=C/c1c(F)c(F)c(Oc2ccc(OC)cc2)c(F)c1F
    0.561, -0.3
- CCCN(CCC)C(=S)NC1CC2C=CC1C2 (stereo not given)
    ., -0.6

# More records.
# Screens in order – LANA-nucl inh, BasE inh
- CNCc1c(C)nn(C2CCS(=O)(=O)C2)c1C (stereo not given)
    ., 2.7
- CN(Cc1ccccc1)C(=O)CSc1cc(=O)n(C)c2ccccc12
    -0.345, -5.8
- COC(=O)/C=c1\sc2nc(N)nn2c1=O
    -0.359, -3.3
- CC(=O)Nc1ccc(C(=S)NCC(c2ccco2)N2CCCCC2)cc1 (stereo not given)
    ., -0.9
- CCN(CC)CC#CCN1c2ccccc2Sc2ccccc21
    ., 2.2
- Cc1cc(SCC(N)=O)n2c(nc3ccccc32)c1C#N
    ., -6.7
- CC1(C)CC(=O)C=C(Sc2nc3cc(Cl)ccc3s2)C1
    ., 3.1
- O=C(/C=C/c1ccccc1)N1CCCC1
    -0.644, -1.3
- CN1C(=O)c2ccc(C(=O)NCc3ccccc3)cc2C1=O
    1.56, -4.4
- CC(C)C[C@@H](C=O)NC(=O)[C@H](CC(C)C)NC(=O)[C@H](CC(C)C)NC(=O)OCc1ccccc1
    0.507, 0.3
- O=C(c1ccco1)N(Cc1ccccc1O)c1ccc(Cl)cc1
    -3.46, -0.7
- CCOc1cc(/C=C/C(=O)C2C(=O)C=C(C)OC2=O)ccc1OC (stereo not given)
    ., -2.8
- COC(=O)c1ccc(COC(=O)CCc2nc3ccccc3s2)o1
    ., -0.5
- O=C(Nc1ccc(S(=O)(=O)Nc2ccccc2Oc2ccc(Cl)cc2Cl)cc1)C1CC1
    ., 1.3
- CCC1(C)CC(=O)N(c2ccc(C(=O)O)c(O)c2)C1=O (stereo not given)
    2.34, -0.6
- O=C(CSc1nncs1)NC1CCCc2ccccc21 (stereo not given)
    ., -3.9
- CC(C)C(CC(=O)O)N1Cc2ccccc2C1=O (stereo not given)
    0.27, .
- CCOC(=O)c1c(-c2ccc(Cl)cc2)nn2c1NCN(Cc1cccc(OC)c1)C2
    -0.848, -0.7
- COc1ccc(/C=C2/C(=O)c3ccc(C(=O)O)cc3C2=O)cc1OC
    ., 0.4
- O=C(NCCC1=CCCCC1)C1CC(O)CN1C(=O)Nc1ccccc1 (stereo not given)
    0.779, 3.3
- CC(C)c1ccc(-c2ncc(CSc3nnc(CN4CCCCCC4=O)o3)s2)cc1
    ., 1.2
- C=CCNC(=O)c1cc2cccc(OC)c2oc1=O
    -0.272, -0.9
- Cc1ccccc1Nc1nc(N)nc(COC(=O)CCN2C(=O)C3CC=CCC3C2=O)n1 (stereo not given)
    ., -1.1
- COc1cc(C(=O)OCC(=O)NC2CCS(=O)(=O)C2)ccc1OCc1c(C)noc1C (stereo not given)
    ., 1.0
- Cc1cnc(NC(=O)C(C)N2CCN(C)CC2)s1 (stereo not given)
    -1.49, 0.8
- CS(=O)(=O)N1CCN(C2c3ccccc3-c3ccccc32)CC1
    -0.653, .
- COc1cccc(C2(O)CCN(C(=O)C3CCC3)CC2)c1
    0.284, 3.4
- O=C1c2ccccc2C(=O)N1C1CCCCC1N1C(=O)c2ccccc2C1=O (stereo not given)
    ., 3.0
- O=Nc1c(O)n(CC(=O)Nc2ccccc2)c2ccccc12
    ., 3.9
- C[C@@H]1C[C@H]2[C@@H]3C[C@H](F)C4=CC(=O)C=C[C@]4(C)[C@@]3(F)[C@@H](O)C[C@]2(C)[C@@]1(O)C(=O)CO
    0.702, 1.7
- O=C(OCC1CC1)c1sc2ccccc2c1Cl
    0.26, -0.2
- Cc1ccc(-c2csc(NC(=O)CSC(C)(C)C)n2)o1
    ., 4.6
- CCC(C)NC(=O)C1CCC(=O)N(c2ccc(OC)cc2)C1c1ccc(OC)c(OC)c1 (stereo not given)
    1.27, -2.8

# As a working copy, six of the compounds above:
# Screens in order – LANA-nucl inh, BasE inh
- CCOc1cc(/C=C/C(=O)C2C(=O)C=C(C)OC2=O)ccc1OC (stereo not given)
    ., -2.8
- COC(=O)c1ccc(COC(=O)CCc2nc3ccccc3s2)o1
    ., -0.5
- O=C(Nc1ccc(S(=O)(=O)Nc2ccccc2Oc2ccc(Cl)cc2Cl)cc1)C1CC1
    ., 1.3
- CCC1(C)CC(=O)N(c2ccc(C(=O)O)c(O)c2)C1=O (stereo not given)
    2.34, -0.6
- O=C(CSc1nncs1)NC1CCCc2ccccc21 (stereo not given)
    ., -3.9
- CC(C)C(CC(=O)O)N1Cc2ccccc2C1=O (stereo not given)
    0.27, .

# A portion of the library; count on the stated rates, not on these rows.
